AF4-AF9 inh = inhibitors of AF4 peptide binding to AF9, primary screen, biochemical, AlphaScreen, biotin-AF4 peptide, FLAG-AF9, single point; inhibition, % at 10 µM; AID 651704, 2012; 350,000 compounds, 0.47% hits;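 active means every replicate reaching a set inhibition limit, whatever the replicate mean, cut at about 25% in these data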;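 further: 0% = plate neutral control median and 100% = total signal loss; the record names both 10 and 1 µM as test concentration; the first replicate is given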
Target sequence (P42568 whole entry, looked up): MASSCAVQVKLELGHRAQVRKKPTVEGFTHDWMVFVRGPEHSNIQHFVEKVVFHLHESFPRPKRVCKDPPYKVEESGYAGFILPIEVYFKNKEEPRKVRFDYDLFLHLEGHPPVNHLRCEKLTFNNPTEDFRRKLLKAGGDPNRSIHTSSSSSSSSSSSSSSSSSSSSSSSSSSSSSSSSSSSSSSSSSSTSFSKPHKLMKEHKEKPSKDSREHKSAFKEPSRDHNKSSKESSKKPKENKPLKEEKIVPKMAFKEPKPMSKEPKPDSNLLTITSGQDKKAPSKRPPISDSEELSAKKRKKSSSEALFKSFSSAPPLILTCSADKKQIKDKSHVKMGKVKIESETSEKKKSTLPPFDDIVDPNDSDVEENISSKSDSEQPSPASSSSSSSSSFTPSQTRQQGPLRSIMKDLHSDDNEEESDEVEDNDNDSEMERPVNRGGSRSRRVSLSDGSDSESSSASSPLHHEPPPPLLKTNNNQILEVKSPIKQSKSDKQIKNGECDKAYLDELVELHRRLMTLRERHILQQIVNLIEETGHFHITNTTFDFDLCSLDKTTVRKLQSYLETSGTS
Active calls of the source: *. This is a subset, so the mix of outcomes need not match the whole.

NC(=O)NCC#Cc1ccc2c(c1)[C@]1(C(=O)N2)[C@H](c2ccccc2OCCO)N2[C@H](c3ccccc3)[C@H](c3ccccc3)OC(=O)[C@H]2[C@@H]1C(=O)N1CCN(c2ncccn2)CC1 was read as AF4-AF9 inh 1.0.
C[C@H]1CN([C@@H](C)CO)C(=O)c2cc(C3=CCCC3)cnc2O[C@@H]1CN(C)Cc1cccnc1 was read as AF4-AF9 inh -3.7.
`Cc1ccc(S(=O)(=O)N2CCOCC2)cc1C(=O)NC1CCN(Cc2ccccc2)CC1` gave AF4-AF9 inh 6.8.
CC=Cc1ccc2n(c1=O)C[C@@H]1[C@@H](CO)[C@H](C(=O)N3CCOCC3)N(Cc3ccccc3)[C@H]21 (mixture of isomers) was read as AF4-AF9 inh -1.1.
For COc1cccc(-c2ccc3c(c2)O[C@H](CN(C)Cc2ccncc2)[C@H](C)CN([C@@H](C)CO)S3(=O)=O)c1 the results were AF4-AF9 inh 4.2.
C[C@@H]1CN([C@H](C)CO)C(=O)Cc2cc(NC(=O)Nc3cccc4ccccc34)ccc2O[C@@H]1CN(C)S(=O)(=O)c1cn(C)cn1 was read as AF4-AF9 inh 2.1.
Screening CC(=O)NC(c1cccc(F)c1)c1nc(-c2cccs2)cs1 (stereo not given) returned AF4-AF9 inh -5.4.
For C[C@H](CO)N1C[C@H](C)[C@H](CN(C)Cc2ccncc2)Oc2ccc(NS(=O)(=O)c3ccc(Cl)cc3)cc2C1=O the results were AF4-AF9 inh -0.2.
`C[C@H]1CN([C@@H](C)CO)C(=O)c2cc(C#Cc3ccccc3)cnc2O[C@H]1CN(C)C(=O)C1CC1` gave AF4-AF9 inh -7.8.
For CO[C@@H]1CN(C)C(=O)c2ccc(NC(=O)c3cc(C)on3)cc2OC[C@@H](C)N(CC2CC2)C[C@@H]1C the results were AF4-AF9 inh -0.3.
For Cc1ccc(S(=O)(=O)Nc2ccc3c(c2)CC(=O)N([C@H](C)CO)C[C@@H](C)[C@H](CN(C)S(=O)(=O)c2c(C)noc2C)O3)cc1 the results were AF4-AF9 inh 2.9.
Screening CCC(=O)N1C[C@H](C)[C@@H](OC)CN(C)C(=O)c2ccc(NC(=O)NC(C)C)cc2OC[C@@H]1C returned AF4-AF9 inh -3.3.
`CN(C)CC(=O)Nc1ccc2c(c1)[C@H]1C[C@@H](CC(=O)NC3CCCCC3)O[C@H](CO)[C@H]1O2` gave AF4-AF9 inh -0.6.
Screening C[C@@H]1CN([C@@H](C)CO)C(=O)c2cc(NC(=O)C3CCCCC3)ccc2O[C@H]1CN(C)C(=O)NC1CCCCC1 returned AF4-AF9 inh -6.7.
Screening Cc1nn(C)cc1NC(=O)C[C@@H]1CC[C@H]2[C@@H](COc3ccc(NC(=O)Nc4cccc(Cl)c4)cc3C(=O)N2C)O1 returned AF4-AF9 inh 4.9.
NC(CCc1ccccc1)c1csc(Nc2ccc(C(=O)NCCO)cc2)n1 (stereo not given) was read as AF4-AF9 inh -2.7.
`COc1cccc(S(=O)(=O)N(C)C[C@@H]2Oc3ncc(C#CC(C)C)cc3C(=O)N([C@@H](C)CO)C[C@H]2C)c1` gave AF4-AF9 inh 1.5.
Screening COCCN(CCOC)Cc1cc(=O)oc2cc(C)c(Cl)cc12 returned AF4-AF9 inh -1.4.
`O=C(O)c1ccccc1NC(=O)C1CCN(S(=O)(=O)c2ccc3c(c2)OCCO3)CC1` gave AF4-AF9 inh -3.3.
Screening C/C=C/c1ccc([C@H]2[C@H](CO)N(C(=O)C3CC3)C23CN(C(=O)NC(C)C)C3)cc1 returned AF4-AF9 inh -13.1.
Screening CNc1cnc(-c2ccsc2)cn1 returned AF4-AF9 inh -5.8.
Screening COc1ccc(NC(=O)Nc2ccc3c(c2)OC[C@@H](C)NC[C@H](C)[C@@H](OC)CN(C)C3=O)cc1 returned AF4-AF9 inh 0.9.
Screening CN1C(=O)c2cc(NS(C)(=O)=O)ccc2OC[C@@H]2O[C@H](CC(=O)NCc3ccccc3)CC[C@H]21 returned AF4-AF9 inh -0.7.
`CC(=O)Nc1ccc2c(c1)C(=O)N(C)[C@H]1CC[C@H](CC(=O)NCc3ccc(F)cc3)O[C@@H]1CO2` gave AF4-AF9 inh -0.4.
`Cc1ccc(S(=O)(=O)N2C[C@H]3[C@H]4C(=O)N(c5ccccc5)C(=O)[C@H]4C[C@H](OC(=O)NCC4CCCCC4)[C@@]3(O)C2)cc1` gave AF4-AF9 inh -1.8.
`CC1(C(=O)NCc2ccccc2)CSCC(=O)N1C1CCN(Cc2ccccc2)CC1` (stereo not given) gave AF4-AF9 inh -1.0.
For C[C@@H]1CN([C@H](C)CO)C(=O)c2cc(NC(=O)CCC(F)(F)F)ccc2O[C@@H](C)CCCCO[C@H]1CN(C)Cc1ccccc1 the results were AF4-AF9 inh -4.6.
`CN(C)CC(=O)Nc1ccc2c(c1)[C@@H]1C[C@@H](CC(=O)NCc3ccccn3)O[C@H](CO)[C@@H]1O2` gave AF4-AF9 inh -2.5.
For C[C@H](CO)N1C[C@H](C)[C@H](CN(C)C(=O)CCCN(C)C)OCCCC[C@H](C)Oc2ccc(NC(=O)c3ccccc3)cc2C1=O the results were AF4-AF9 inh -0.1.
For C[C@H](CO)N1C[C@H](C)[C@H](CN(C)C(=O)Nc2ccc(F)cc2)Oc2ncc(C#CC3CC3)cc2C1=O the results were AF4-AF9 inh -0.3.
Cc1ccc(S(=O)(=O)N(C)C[C@@H]2Oc3ccc(NC(=O)CCC(F)(F)F)cc3C(=O)N([C@H](C)CO)C[C@H]2C)cc1 was read as AF4-AF9 inh -2.9.
CC(C)CC#Cc1cnc2c(c1)C(=O)N([C@H](C)CO)C[C@@H](C)[C@@H](CN(C)Cc1cncnc1)O2 was read as AF4-AF9 inh -2.8.
Screening COc1ccc(CN(C)C[C@@H]2Oc3c(NC(=O)Nc4ccc5c(c4)OCO5)cccc3C(=O)N([C@H](C)CO)C[C@H]2C)cc1 returned AF4-AF9 inh -9.4.
Cc1cc(C(=O)Nc2ccc3c(c2)C(=O)N(C)[C@@H]2CC[C@H](CC(=O)N[C@@H](C)c4ccccc4)O[C@@H]2CO3)no1 was read as AF4-AF9 inh 1.6.
Screening CC(C)COC(=O)N(C)C[C@H]1OCc2cn(nn2)CCCC(=O)N([C@H](C)CO)C[C@H]1C returned AF4-AF9 inh -0.1.
Screening C[C@@H]1CN([C@H](C)CO)C(=O)c2ccccc2-c2ccccc2CO[C@@H]1CN(C)S(=O)(=O)c1ccsc1 returned AF4-AF9 inh -1.0.
C[C@H]1CN([C@@H](C)CO)C(=O)c2cc(NC(=O)Nc3ccc4c(c3)OCO4)ccc2O[C@@H]1CN(C)C(=O)Nc1cccc2ccccc12 was read as AF4-AF9 inh 2.0.
C[C@@H](NC(=O)[C@@H]1[C@@H](CO)[C@@H]2Cn3c(ccc(-c4ccccc4)c3=O)[C@H]1N2C)c1ccccc1 was read as AF4-AF9 inh -2.3.
CC(C)NC(=O)N1[C@H](CO)[C@@H](c2ccccc2)C12CN(C(=O)Cc1cccnc1)C2 was read as AF4-AF9 inh -1.3.
For COc1cc(-c2cc3nc(NCCN(C)C)ccn3n2)cc(OC)c1OC the results were AF4-AF9 inh -1.7.
Screening CN1C(=O)c2cc(NC(=O)C3CC3)ccc2OC[C@H]2O[C@@H](CC(=O)O)CC[C@H]21 returned AF4-AF9 inh -0.6.
C[C@H](CO)N1C[C@H](C)[C@@H](CN(C)Cc2ccc3c(c2)OCO3)Oc2ccc(NS(=O)(=O)c3cn(C)cn3)cc2C1=O was read as AF4-AF9 inh -1.1.
`CCC(=O)Nc1ccc2c(c1)C(=O)N(C)C[C@@H](OC)[C@H](C)CN(C(=O)c1cnccn1)[C@@H](C)CO2` gave AF4-AF9 inh 4.9.
Screening CN(C[C@H]1[C@H](c2ccccc2)[C@@H](CO)N1C(=O)C1CCC1)C(=O)c1ccccn1 returned AF4-AF9 inh -3.6.
`COc1ccccc1S(=O)(=O)N[C@H]1CC[C@H](CC(=O)NCc2cc(F)cc(F)c2)O[C@@H]1CO` gave AF4-AF9 inh -4.2.
`CO[C@@H]1CN(C)C(=O)c2cc(NC(=O)CN(C)C)ccc2OC[C@@H](C)N(Cc2ccccc2F)C[C@H]1C` gave AF4-AF9 inh 12.7.
`C[C@@H]1CN([C@@H](C)CO)C(=O)c2cccc(NC(=O)NC3CCCCC3)c2O[C@@H]1CN(C)C(=O)NC1CCCCC1` gave AF4-AF9 inh 1.4.
`C[C@@H]1CN([C@H](C)CO)C(=O)c2ccccc2-c2ccccc2CO[C@@H]1CN(C)Cc1ccccc1C(F)(F)F` gave AF4-AF9 inh -1.7.
Screening COc1ccccc1-c1ccc2c(c1)O[C@@H](CN(C)C(=O)Nc1ccccc1)[C@H](C)CN([C@@H](C)CO)S2(=O)=O returned AF4-AF9 inh -5.3.
C[C@@H]1CCCCO[C@H](CN(C)C(=O)C2CCCCC2)[C@H](C)CN([C@H](C)CO)C(=O)c2cc(NS(C)(=O)=O)ccc2O1 was read as AF4-AF9 inh 2.3.
For CNC[C@@H]1OCCCC[C@@H](C)Oc2ccc(NS(=O)(=O)c3ccc(F)cc3)cc2C(=O)N([C@H](C)CO)C[C@H]1C the results were AF4-AF9 inh 5.6.
Screening CCCNC(=O)N1CC2(C1)CN(Cc1ccccn1)[C@H](CO)c1c2c2ccc(OC)cc2n1C returned AF4-AF9 inh 2.1.
O=C1CN(S(=O)(=O)Cc2ccccc2)C[C@@H]2[C@@H](c3ccc(C#Cc4ccc(F)cc4)cc3)[C@H](CO)N12 was read as AF4-AF9 inh -2.4.
`C/C=C/c1cnc2c(c1)C(=O)N([C@H](C)CO)C[C@@H](C)[C@H](CN(C)Cc1ccc(F)cc1)O2` gave AF4-AF9 inh -1.8.
Screening CCC(=O)N1CC2(CCN(Cc3ccc(F)cc3)CC2)c2c(n(C)c3cc(OC)ccc23)[C@H]1CO returned AF4-AF9 inh 0.0.
CN(C)Cc1cn(CC[C@@H]2CC[C@H](N)[C@@H](CO)O2)nn1 was read as AF4-AF9 inh -2.5.
`C[C@H](CO)N1C[C@H](C)[C@@H](CN(C)C(=O)CCCN(C)C)OCCCC[C@H](C)Oc2ccc(N(C)C)cc2C1=O` gave AF4-AF9 inh 0.0.
Screening C[C@@H]1CN([C@H](C)CO)C(=O)c2cc(NC(=O)Cc3cn(C)c4ccccc34)ccc2O[C@@H]1CN(C)Cc1ccncc1 returned AF4-AF9 inh 1.1.
CCC(=O)Nc1ccc2c(c1)C(=O)N(C)[C@@H]1CC[C@H](CC(=O)NCCc3ccccc3)O[C@H]1CO2 was read as AF4-AF9 inh -2.1.
O=C(C[C@H]1C=C[C@@H](NC(=O)C2CCOCC2)[C@@H](CO)O1)Nc1nccs1 was read as AF4-AF9 inh -5.1.

An excerpt from above in order of molar mass, highest first.
Screening C[C@@H]1CN([C@H](C)CO)C(=O)c2cc(NC(=O)Cc3cn(C)c4ccccc34)ccc2O[C@@H]1CN(C)Cc1ccncc1 returned AF4-AF9 inh 1.1.
`C[C@@H]1CN([C@@H](C)CO)C(=O)c2cccc(NC(=O)NC3CCCCC3)c2O[C@@H]1CN(C)C(=O)NC1CCCCC1` gave AF4-AF9 inh 1.4.
`C[C@H](CO)N1C[C@H](C)[C@@H](CN(C)C(=O)CCCN(C)C)OCCCC[C@H](C)Oc2ccc(N(C)C)cc2C1=O` gave AF4-AF9 inh 0.0.
`CO[C@@H]1CN(C)C(=O)c2cc(NC(=O)CN(C)C)ccc2OC[C@@H](C)N(Cc2ccccc2F)C[C@H]1C` gave AF4-AF9 inh 12.7.
`COc1ccccc1S(=O)(=O)N[C@H]1CC[C@H](CC(=O)NCc2cc(F)cc(F)c2)O[C@@H]1CO` gave AF4-AF9 inh -4.2.
Screening CN(C[C@H]1[C@H](c2ccccc2)[C@@H](CO)N1C(=O)C1CCC1)C(=O)c1ccccn1 returned AF4-AF9 inh -3.6.
Screening CN1C(=O)c2cc(NC(=O)C3CC3)ccc2OC[C@H]2O[C@@H](CC(=O)O)CC[C@H]21 returned AF4-AF9 inh -0.6.
O=C(C[C@H]1C=C[C@@H](NC(=O)C2CCOCC2)[C@@H](CO)O1)Nc1nccs1 was read as AF4-AF9 inh -5.1.
CN(C)Cc1cn(CC[C@@H]2CC[C@H](N)[C@@H](CO)O2)nn1 was read as AF4-AF9 inh -2.5.

Next results follow.
O=C(Nc1ccc2c(c1)OCO2)N[C@H]1CC[C@@H](CCNC(=O)C2CCCCC2)O[C@H]1CO was read as AF4-AF9 inh 2.5.
OC[C@H]1[C@H](c2ccc(C#Cc3cccnc3)cc2)[C@@H]2CN(Cc3ccccc3F)CCCCN12 was read as AF4-AF9 inh -3.4.
O=C(C1CCOCC1)N1CC(=O)N2[C@@H](CO)[C@@H](c3ccc(C#CCc4ccccc4)cc3)[C@@H]2C1 was read as AF4-AF9 inh -2.6.
Screening COc1cccc(CNC(=O)[C@@H]2CCCN2C(=O)[C@@H]2CCCN2)c1 returned AF4-AF9 inh -3.3.
`CC(C)(C)OC(=O)COc1cccc(C(=O)CCN2CCOCC2)c1` gave AF4-AF9 inh 0.6.
Brc1cccc(-c2nc3c4ccccc4ccn3c2Cc2ccsc2)c1 was read as AF4-AF9 inh -2.5.
Screening CC=Cc1ccc2n(c1=O)C[C@@H]1[C@@H](CO)[C@H](C(=O)NCC)[C@H]2N1CCC(F)(F)F (mixture of isomers) returned AF4-AF9 inh 0.2.
Screening Cc1cccc(CN(C)C[C@H]2OCc3cn(nn3)CCCC(=O)N([C@H](C)CO)C[C@H]2C)c1 returned AF4-AF9 inh -0.9.
For COc1ccc(CN2CCC2(C)C(=O)NCc2ccc3c(c2)OCO3)c2ccccc12 (stereo not given) the results were AF4-AF9 inh -1.2.
`CC1(C(=O)NS(=O)(=O)c2ccccc2)CCN1C(=O)c1ccccc1CCc1ccccc1` (stereo not given) gave AF4-AF9 inh -0.6.
Screening CO[C@H]1CN(C)C(=O)c2cc(NS(C)(=O)=O)ccc2OC[C@H](C)N(C(=O)C2CC2)C[C@@H]1C returned AF4-AF9 inh -1.0.
For C[C@@H]1CN([C@@H](C)CO)C(=O)Cc2cc(NC(=O)Nc3ccc(C(F)(F)F)cc3)ccc2O[C@H]1CN(C)S(C)(=O)=O the results were AF4-AF9 inh 2.3.
CCCNC(=O)[C@H]1[C@H](CO)[C@H]2Cn3c(cccc3=O)[C@@H]1N2S(=O)(=O)c1ccccc1C was read as AF4-AF9 inh -2.9.
